Polio RdRp inh = inhibitors of poliovirus RNA polymerase binding and polymerization. 150,000 tested, 0.66% active. % elongation, % (compound at 16.7 µg/mL). poliovirus polymerase elongation, fluorescence polarization; active compounds read low; in the data active = % elongation below about 90%; note: some results filed as inactive read as strong as hits
Target sequence (P03300 1749-2209 limits assumed): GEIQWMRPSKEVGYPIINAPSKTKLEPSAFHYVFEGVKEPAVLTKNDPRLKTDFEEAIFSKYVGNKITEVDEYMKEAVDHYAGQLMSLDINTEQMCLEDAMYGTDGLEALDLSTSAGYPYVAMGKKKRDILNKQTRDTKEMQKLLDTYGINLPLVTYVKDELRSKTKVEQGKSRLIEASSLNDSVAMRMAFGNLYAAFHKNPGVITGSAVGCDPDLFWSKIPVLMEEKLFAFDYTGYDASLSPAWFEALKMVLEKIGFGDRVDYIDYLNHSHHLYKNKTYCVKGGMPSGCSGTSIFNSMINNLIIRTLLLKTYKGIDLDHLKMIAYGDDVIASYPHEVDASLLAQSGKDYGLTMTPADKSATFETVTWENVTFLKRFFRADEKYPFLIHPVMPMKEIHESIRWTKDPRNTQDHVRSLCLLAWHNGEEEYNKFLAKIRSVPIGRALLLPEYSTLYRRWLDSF
Polio RdRp inh intensity = also measured in Polio RdRp inh; calls as there; % elongation; measured here: total intensity read-out; formula for this scale not given here;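 total fluorescence in place of polarization; lower means less elongation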
* = called active by the depositor.

| molecule | Polio RdRp inh | Polio RdRp inh intensity |
| --- | --- | --- |
| Cc1ccc(-n2nc(C)c3nc(CCC(=O)Nc4cccc(F)c4)c(=O)n(C)c32)cc1 | 107 | 109 |
| COc1ccc(NC(=O)CSc2nc3nc(C)c(Cc4ccccc4)c(C)n3n2)cc1OC | 109 | 107 |
| COc1ccc(N(Cc2cccs2)C(=O)COc2cccc(C)c2C)cc1 | 102 | 92 |
| CC(C)Cc1cc(C(=O)NCc2ccc(Cl)cc2)no1 | 105 | 103 |
| O=C(Cn1ncc2c3ccccc3n(Cc3ccccc3)c2c1=O)NCCc1ccc(Cl)cc1 | 111 | 111 |
| COC(=O)COc1ccc(-c2nnc(Nc3ccc(O)cc3)c3ccccc23)cc1 | 106 | 104 |
| COc1cccc(NC(=O)c2oc3ccccc3c2NC(=O)C2CCCCC2)c1 | 100 | 95 |
| Cc1ccc(C)c(Nc2nn3c(=O)c4ccc(C(=O)NC5CCCCC5)cc4nc3s2)c1 | 103 | 100 |
| CCOc1ccc(NC(=O)CSc2ncc3c(n2)-c2ccccc2N(Cc2ccccc2C)S3(=O)=O)cc1 | 112 | 114 |
| COC(=O)c1c(NC(=O)CCCOc2ccc(C(C)(C)C)cc2)sc2c1CCC(C)C2 (stereo not given) | 104 | 106 |
| COc1ccc(C(=O)Nc2ccc(NC(=O)c3cccs3)cc2)cc1OC | 105 | 108 |
| COc1ccc(CCNC(=O)Cc2c(C)c3c(cc(C)c4c(C)c(C)oc43)oc2=O)cc1 | 104 | 100 |
| O=C(O)CCn1ccc2cc(S(=O)(=O)N3CCCCC3)ccc21 | 107 | 105 |
| Cc1cc(C)c2oc(C(=O)Nc3c(C(=O)Nc4ccccc4)oc4ccccc34)cc(=O)c2c1 | 104 | 104 |
| Cc1cccc(C(=O)Nc2c(-c3ccc(F)cc3)nc3ccccn23)c1 | 100 | 97 |
| O=C(NC1CCCCC1)c1ccc2c(c1)N(Cc1cccc(F)c1)C(=O)c1ccccc1S2 | 106 | 108 |
| O=C(Cn1cnc2nc3c(cc2c1=O)CCCC3)N1CCN(c2ccccc2)CC1 | 103 | 107 |
| Cc1ccc(Cl)cc1N1CCN(C(=O)c2cc(S(=O)(=O)N3CCCC3)c[nH]2)CC1 | 110 | 108 |
| CC(=O)C1=C(OC(=O)C(C)C)c2ccccc2S(=O)(=O)N1Cc1ccccc1 | 120 | 115 |
| O=C(CSc1nnc(-c2ccc3c(c2)OCO3)o1)Oc1ccccc1 | 83 | 88 |
| CCN(CC)CCNC(=O)C(=O)NCC(c1cccnc1)N1CCN(c2ccc(F)cc2)CC1 (stereo not given) | 111 | 116 |
| Cc1ccc(Nc2nc3ccc(C)cc3nc2-n2nc(C)cc2C)c(C)c1 | 110 | 113 |
| CCCCNC(=O)CSc1nc2nc(C)c(Cc3c(F)cccc3Cl)c(C)n2n1 | 103 | 104 |
| CCC(C)NC(=O)C1CCN(S(=O)(=O)c2ccc3c(ccn3CC)c2)CC1 (stereo not given) | 113 | 100 |
| Cc1ccc(-c2noc(-c3ccccc3NC(=O)c3ccccc3)n2)cc1 | 108 | 112 |

Rewritten with values under each structure: 20 of the compounds above.
Second line of a record – Polio RdRp inh	Polio RdRp inh intensity
> COC(=O)COc1ccc(-c2nnc(Nc3ccc(O)cc3)c3ccccc23)cc1
 : 106	104
> COc1cccc(NC(=O)c2oc3ccccc3c2NC(=O)C2CCCCC2)c1
 : 100	95
> Cc1ccc(C)c(Nc2nn3c(=O)c4ccc(C(=O)NC5CCCCC5)cc4nc3s2)c1
 : 103	100
> CCOc1ccc(NC(=O)CSc2ncc3c(n2)-c2ccccc2N(Cc2ccccc2C)S3(=O)=O)cc1
 : 112	114
> COC(=O)c1c(NC(=O)CCCOc2ccc(C(C)(C)C)cc2)sc2c1CCC(C)C2 (stereo not given)
 : 104	106
> COc1ccc(C(=O)Nc2ccc(NC(=O)c3cccs3)cc2)cc1OC
 : 105	108
> COc1ccc(CCNC(=O)Cc2c(C)c3c(cc(C)c4c(C)c(C)oc43)oc2=O)cc1
 : 104	100
> O=C(O)CCn1ccc2cc(S(=O)(=O)N3CCCCC3)ccc21
 : 107	105
> Cc1cc(C)c2oc(C(=O)Nc3c(C(=O)Nc4ccccc4)oc4ccccc34)cc(=O)c2c1
 : 104	104
> Cc1cccc(C(=O)Nc2c(-c3ccc(F)cc3)nc3ccccn23)c1
 : 100	97
> O=C(NC1CCCCC1)c1ccc2c(c1)N(Cc1cccc(F)c1)C(=O)c1ccccc1S2
 : 106	108
> O=C(Cn1cnc2nc3c(cc2c1=O)CCCC3)N1CCN(c2ccccc2)CC1
 : 103	107
> Cc1ccc(Cl)cc1N1CCN(C(=O)c2cc(S(=O)(=O)N3CCCC3)c[nH]2)CC1
 : 110	108
> CC(=O)C1=C(OC(=O)C(C)C)c2ccccc2S(=O)(=O)N1Cc1ccccc1
 : 120	115
> O=C(CSc1nnc(-c2ccc3c(c2)OCO3)o1)Oc1ccccc1
 : 83	88
> CCN(CC)CCNC(=O)C(=O)NCC(c1cccnc1)N1CCN(c2ccc(F)cc2)CC1 (stereo not given)
 : 111	116
> Cc1ccc(Nc2nc3ccc(C)cc3nc2-n2nc(C)cc2C)c(C)c1
 : 110	113
> CCCCNC(=O)CSc1nc2nc(C)c(Cc3c(F)cccc3Cl)c(C)n2n1
 : 103	104
> CCC(C)NC(=O)C1CCN(S(=O)(=O)c2ccc3c(ccn3CC)c2)CC1 (stereo not given)
 : 113	100
> Cc1ccc(-c2noc(-c3ccccc3NC(=O)c3ccccc3)n2)cc1
 : 108	112

Next part.
| molecule | Polio RdRp inh | Polio RdRp inh intensity |
| --- | --- | --- |
| Cc1cccc(-c2nn3c(=O)cc(CN4CCN(C(=O)/C=C/c5ccccc5)CC4)nc3s2)c1 | 103 | 106 |
| N#Cc1ccccc1NC(=O)c1cccn(Cc2ccccc2)c1=O | 112 | 113 |
| COc1ccc(-c2cc(C(F)(F)F)nc(SCC(=O)NCC(C)C)n2)cc1OC | 106 | 110 |
| Cc1ccc(S(=O)(=O)NCC2CCC(C(=O)NCc3ccc(F)cc3)CC2)cc1 (stereo not given) | 111 | 112 |
| CC(=O)c1ccc(NC(=O)Cn2c(=O)n(Cc3ccco3)c(=O)c3sc4ccccc4c32)cc1 | 106 | 111 |
| CNS(=O)(=O)c1cc(-c2nnc(Nc3cc(C)ccc3C)c3ccccc23)ccc1C | 105 | 107 |
| COc1ccc(NC(=O)c2ccco2)cc1NC(=O)COc1ccc(Cl)c(C)c1 | 106 | 109 |
| O=C(NCc1cccc(Cl)c1)c1ccc2c(Cl)c3c(nc2c1)CCCC3 | 108 | 109 |
| CN(C)c1ncc(C(=O)NCc2ccccc2Cl)cn1 | 106 | 105 |
| Cc1cccc(NC(=O)CN2C(=O)c3cccnc3Oc3ccc(Cl)cc32)c1C | 110 | 108 |
| CN(C)c1ccc(CNC(=O)CN2CCSc3ccc(S(=O)(=O)N(C)C)cc32)cc1 | 108 | 115 |
| CC(C)Oc1ccc(CNC(=O)CCn2c(=O)c3cccn3c3ccc(F)cc32)cc1 | 114 | 111 |
| Cc1ccc(NC(=O)[C@H]2O[C@@H]3OC(C)(C)O[C@@H]3[C@H]3OC(C)(C)O[C@H]32)cc1F | 108 | 111 |
| CC(C)(C)OC(=O)N1CCC(c2c(C(=O)NCc3ccc4c(c3)OCO4)cnn2-c2ccccc2Cl)CC1 | 110 | 112 |
| CCn1nnc2cc(C(=O)Nc3cc(C)ccc3C)ccc21 | 115 | 112 |
| Cc1ccc(N2CCN(C(=O)c3nn(C)c4c3CS(=O)(=O)c3ccccc3-4)CC2C)cc1 (stereo not given) | 110 | 116 |
| Cc1ccc(CNc2ccc(-c3nc(C(C)C)no3)cc2[N+](=O)[O-])cc1 | 107 | 108 |
| CCn1cc(C(=O)OCC(=O)Nc2ccc(C)c(Cl)c2)c(=O)c2ccc(C)nc21 | 107 | 108 |
| COc1ccc(-n2c(=O)c3sc4ccccc4c3n(Cc3ccccc3C)c2=O)cc1OC | 108 | 111 |
| COC(=O)c1ccc(NC(=O)CCS(=O)(=O)c2ccc(Br)s2)cc1 | 107 | 110 |
| CCOC(=O)C1CCCN(C(=O)Cn2ncc3c([nH]c4ccccc43)c2=O)C1 (stereo not given) | 112 | 115 |
| COc1ccc(CN(C(=O)c2ccccc2F)C2CCS(=O)(=O)C2)cc1 (stereo not given) | 100 | 102 |
| CC(=O)N1CCc2c(sc3c2c(=O)n(CCc2ccccc2)c(=O)n3Cc2ccc(F)cc2)C1 | 106 | 110 |
| COc1cccc(N2CCN(C(=O)c3ccc4c(Cl)c5c(nc4c3)CCCC5)CC2)c1 | 108 | 109 |
| CCc1ccc(NC(=O)CC2C(=O)NCCN2C(=O)c2ccc(F)cc2)cc1 (stereo not given) | 109 | 108 |

Arranged by formula weight (largest number first): three of the compounds above
| molecule | Polio RdRp inh | Polio RdRp inh intensity |
| --- | --- | --- |
| COc1ccc(NC(=O)c2ccco2)cc1NC(=O)COc1ccc(Cl)c(C)c1 | 106 | 109 |
| CCn1cc(C(=O)OCC(=O)Nc2ccc(C)c(Cl)c2)c(=O)c2ccc(C)nc21 | 107 | 108 |
| CCn1nnc2cc(C(=O)Nc3cc(C)ccc3C)ccc21 | 115 | 112 |

(listing goes on)
| molecule | Polio RdRp inh | Polio RdRp inh intensity |
| --- | --- | --- |
| Cc1ccccc1-c1nc(CS(=O)(=O)CC(=O)NCCCN2CCN(C)CC2)c(C)o1 | 105 | 103 |
| CCN(CC)S(=O)(=O)c1ccc2c(c1)N(CC(=O)Nc1ccc(OC)cc1)C(=O)CS2 | 102 | 104 |
| CSc1ncc(C(=O)Nc2ccc(Cl)cc2C(=O)c2ccccc2)c(C)n1 | 109 | 117 |
| Cc1oc2ncn(CC(C)C)c(=O)c2c1C(=O)NC(C)c1ccccc1 (stereo not given) | 105 | 111 |
| COc1ccccc1Nc1ncc2c(n1)CCN(Cc1cc(F)cc(F)c1)C2 | 106 | 102 |
| COc1ccc(NC(=O)Cn2nnc(C(=O)NCCc3ccccc3)c2N)cc1 | 112 | 116 |
| Cc1oc(-c2ccccc2)nc1CSc1nnc(C)n2c1cc1sccc12 | 98 | 101 |
| O=C(Cn1c(-c2cccs2)cc2cc(Cl)ccc21)N1CCN(c2ccccc2)CC1 | 114 | 108 |
| CC(C)(C)c1ccc(/C=C/C(=O)Nc2ccc(S(N)(=O)=O)cc2)cc1 | 105 | 104 |
| Cc1nn(-c2ccc(N3CCOCC3)nn2)c(C)c1CCC(=O)NCc1ccc(OC(C)C)cc1 | 108 | 100 |
| COc1cc(C(=O)NCCc2sc(-c3ccc(C)cc3)nc2C)cc(OC)c1OC | 105 | 112 |
| O=C(COCc1cc(-c2cccs2)on1)N1CCN(c2ccc(F)cc2)CC1 | 105 | 105 |
| CC(NC(=O)C1=Cc2ccccc2OC1)c1ccccc1 (stereo not given) | 106 | 106 |
| CC(C)Oc1ccc(CNC(=O)C2CCN(C(=O)N3CCOc4ccc(Cl)cc43)CC2)cc1 | 109 | 113 |
| Cc1ccc(CNC(=O)c2cc3sccc3n2Cc2ccc(F)cc2)cc1 | 102 | 106 |
| CSc1nc(Nc2ccc(C)cc2)c(C#N)c(-c2ccccc2)n1 | 100 | 95 |
| COc1ccc(S(=O)(=O)Nc2cccc(-c3ccc(N4CCC(C)CC4)nn3)c2)cc1OC | 114 | 111 |
| O=C(Nc1ccc(F)c(Cl)c1)N1CCN2CCCCC2C1 (stereo not given) | 108 | 113 |
| CCC(C(=O)NCCCN(CC)CC)n1ncn2c(cc3occc32)c1=O (stereo not given) | 110 | 114 |
| CCn1c(=O)n(CC)c2cc(N3CCCCC3)c(NC(=O)Nc3cc(Cl)ccc3OC)cc21 | 102 | 108 |
| CCCCSc1nc2sc3c(c2c(=O)n1-c1ccccc1C)CC(C)(C)OC3 | 103 | 104 |
| CCCSc1ncc(Cl)c(C(=O)Nc2ccc(OC)cc2OC)n1 | 105 | 106 |
| CCCn1c2ccccc2c2cnn(CC(=O)NCCCOC(C)C)c(=O)c21 | 108 | 111 |
| COc1ccc(C(=O)CSc2nc(C)cc(C)c2C(=O)Nc2ccccc2C)cc1 | 111 | 107 |
| COc1cccc(CNC(=O)C(C)n2ncn3cccc3c2=O)c1OC (stereo not given) | 112 | 115 |

> CCOc1ccc(N(CC(=O)Nc2ccccc2CC)S(=O)(=O)c2c(C)[nH]c(=O)[nH]c2=O)cc1
  Polio RdRp inh: 100 | Polio RdRp inh intensity: 103
> Cc1cc(OC(=O)c2cc(-c3ccc4c(c3)OCCO4)on2)ccc1Cl
  Polio RdRp inh: -17* | Polio RdRp inh intensity: 16*
> CCc1ccccc1NC(=O)C1=CC(c2ccc3c(c2)OCO3)=NS(=O)(=O)N1C
  Polio RdRp inh: 115 | Polio RdRp inh intensity: 110
> CCc1ccc(S(=O)(=O)c2nnn3c2nc(NCc2ccccc2OC)c2cc(Cl)ccc23)cc1
  Polio RdRp inh: 104 | Polio RdRp inh intensity: 112
> COc1cccc(NC(=O)Cn2cnc3c(nc4n3CCCCC4)c2=O)c1
  Polio RdRp inh: 100 | Polio RdRp inh intensity: 97
> CCC1CCCCN1C(=O)CSc1n[nH]c(-c2ccccc2)n1 (stereo not given)
  Polio RdRp inh: 114 | Polio RdRp inh intensity: 112
> CC(=O)c1ccc(NC(=O)C2Cc3ccccc3N2C(=O)c2ccccc2)cc1 (stereo not given)
  Polio RdRp inh: 109 | Polio RdRp inh intensity: 103
> Cc1ccc(-c2nc3cc(NC(=O)c4cc5ccccc5o4)ccc3o2)cc1Cl
  Polio RdRp inh: 106 | Polio RdRp inh intensity: 103
> CCOC(=O)C1CCN(C(=O)CSc2n[nH]c(-c3ccc(OC)cc3)n2)CC1
  Polio RdRp inh: 110 | Polio RdRp inh intensity: 112
> CCN(CC)S(=O)(=O)c1ccc(C(=O)NC2CC(=O)N(c3ccc(OC)c(OC)c3)C2)cc1 (stereo not given)
  Polio RdRp inh: 110 | Polio RdRp inh intensity: 108
> O=C(CN1C(=O)COc2ccc(S(=O)(=O)N3CCOCC3)cc21)NCc1ccc(Cl)cc1
  Polio RdRp inh: 118 | Polio RdRp inh intensity: 115
> CCOc1ccc(NC(=O)CCc2c(C)nc3c(-c4ccccc4)c(C)nn3c2C)cc1
  Polio RdRp inh: 104 | Polio RdRp inh intensity: 103
> Cc1ccc(S(=O)(=O)N(Cc2nc(-c3cccc(C)c3)no2)C2CCCCC2)cc1
  Polio RdRp inh: 106 | Polio RdRp inh intensity: 104

Screening results as filed in PubChem BioAssay.

Only part of the results is shown; count on the stated rates, not on these rows.
